# Assay outcomes as filed in PubChem BioAssay.
# Resorufin fluor: qHTS Assay for Spectroscopic Profiling in Resorufin Spectral Region | Compound fluorescence, resorufin region 547/598 nm, buffer; hits give high values | max dye-equivalent concentration, M | 0.04% of 59,000 active; active = above 10 nM dye equivalent; inconclusive = 1 to 10 nM; inactive = 1 nM or less; a few of its hits are not listed in these tables; further: highest value over a series up to 38 µM
#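 Tris 100 mM pH 8.0; compound added, 15 min RT; CCD imager read, ex 547 nm/em 598 nm; signal normalized to resorufin standard curve (six concentrations per plate) as dye-equivalent concentration.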
# A647 fluor: qHTS Assay for Spectroscopic Profiling in A647 Spectral Region; Compound fluorescence, A647 channel (570/671 nm), Tris buffer; max dye-equivalent concentration, M; 59,000 tested, under 10 active; AID 592, 2007; active means above 1 µM dye equivalent; inconclusive means 0.1 to 1 µM; inactive means 0.1 µM or less;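 further: values scaled relative to a standard on each plate; highest value over a series up to 38 µM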
#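 Tris 100 mM pH 8.0; cpd + A647 stds pin-transferred; 15 min RT; CCD imager, ex 570/em 671. Output = A647-equivalent conc. per cpd conc.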
# TSHR ag: qHTS Assay for Agonists of the Thyroid Stimulating Hormone Receptor; HEK293-CNG-TSHR cells (CNG channel as cAMP sensor), membrane potential dye, cAMP; 0.48% of 73,000 active; Potency, µM (doses to about 57.1 µM), for inactives: at the top dose activation, actives largely listed as activators; Thyrotropin receptor (Homo sapiens), P16473; active = well fitted activation curve of enough size with the parental cells flat; inconclusive = any curve in the parental cells; inactive = parental cells flat and receptor cells flat or falling; further: potency means the concentration at half of the fitted maximal effect; % of control where 0% means no effect; weak receptor curves with flat parental cells got no call and are not listed
# Target sequence (P16473 whole entry, looked up): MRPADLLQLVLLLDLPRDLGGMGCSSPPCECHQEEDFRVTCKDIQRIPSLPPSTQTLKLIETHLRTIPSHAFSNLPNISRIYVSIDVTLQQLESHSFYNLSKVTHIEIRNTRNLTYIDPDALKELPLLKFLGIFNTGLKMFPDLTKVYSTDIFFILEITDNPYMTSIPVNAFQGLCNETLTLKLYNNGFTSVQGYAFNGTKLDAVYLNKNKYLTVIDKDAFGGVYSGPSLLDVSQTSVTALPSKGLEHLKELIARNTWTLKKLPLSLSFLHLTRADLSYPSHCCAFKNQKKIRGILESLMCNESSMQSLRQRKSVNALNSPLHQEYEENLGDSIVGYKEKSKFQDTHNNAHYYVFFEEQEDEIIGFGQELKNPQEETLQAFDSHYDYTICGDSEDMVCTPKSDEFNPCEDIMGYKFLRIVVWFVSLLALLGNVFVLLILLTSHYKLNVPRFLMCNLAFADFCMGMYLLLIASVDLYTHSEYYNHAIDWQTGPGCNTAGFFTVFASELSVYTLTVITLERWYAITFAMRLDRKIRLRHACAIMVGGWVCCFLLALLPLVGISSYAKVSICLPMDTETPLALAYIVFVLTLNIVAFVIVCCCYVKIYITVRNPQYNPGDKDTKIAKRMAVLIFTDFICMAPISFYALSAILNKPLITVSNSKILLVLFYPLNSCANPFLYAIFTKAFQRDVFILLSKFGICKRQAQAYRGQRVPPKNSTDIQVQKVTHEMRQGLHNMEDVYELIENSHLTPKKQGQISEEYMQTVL
#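 HEK 293 cells stably expressing TSHR and a cAMP-gated CNG channel; parental CNG-only cells as counterscreen. Cells preloaded 60 min with membrane potential dye plus 100 uM RO 20-1724, then compound 30 min; fluorescence read at 590 nm.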
# A488 autofl: qHTS Assay for Spectroscopic Profiling in A488 Spectral Region; compound autofluorescence, A488 spectral region, dye equivalency; hits give high values; max dye equivalency, M; 0.1% of 59,000 active; active = above 10 nM dye equivalent; inconclusive = 1 to 10 nM; inactive = 1 nM or less; about half of its hits are not listed in these tables;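 further: highest value over a series up to 38 µM; compound alone in buffer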
#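 Compounds pin-transferred into 100 mM Tris buffer, pH 8.0, incubated 15 min at room temperature, then imaged with 480 nm excitation/540 nm emission filters. Fluorescence converted to Alexa 488 dye-equivalent concentration via an on-plate six-point A488 standard curve.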
# AID923: qHTS Assay for Allosteric/Competitive Inhibitors of Caspase-1: Spectroscopic Profiling in AFC Spectral Region; Potency, µM (titrated, usually from 57.5 µM), for inactives: top-dose fluorescence increase, actives largely listed as activators; compound fluorescence, AFC spectral region (405/520 nm); almost no hit is shown here; 1.1% of 75,000 active; active means well fitted activation curve with a large enough effect; inconclusive means small, poorly fitted or top-dose-only effect;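 further: potency means the concentration at half of the fitted maximal effect; 0% is about no effect; scaled to a free AFC standard on each plate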
#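 Baseline compound fluorescence (AFC region, 405 nm ex/520 nm em) taken from the intercept of kinetic reads with 50 nM caspase-1 and 5 uM Ac-WEHD-AFC; normalized to an on-plate AFC standard curve; compounds titrated up to 57 uM.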
# * marks the source's active call; other numbers are inactive results; i = inactive; ? = inconclusive; . = no result given; [ ] = another dose, or the depositor's remark. The list is partial (hit frequency here may not be typical).
# Values in the order – Resorufin fluor | A647 fluor | TSHR ag | A488 autofl | AID923
Cc1cn2c(-c3ccncc3)nnc2s1
→ i | 6.8e-09 | . | i | .
O=C(CCc1nc(-c2ccccc2F)no1)NC1CCN(Cc2ccccc2)CC1
→ i | 1.8e-08 | 7% | i | -1.6%
CC1CCCCN1C(=O)CSc1ccc(-c2ccc(F)cc2)nn1 (stereo not drawn)
→ i | 1e-09 | -20% | i | -1.7%
c1cncc(-c2nc3ccccn3c2Nc2ccc3c(c2)OCCO3)c1
→ . | . | ? | . | -2.0%
COc1ccc(N2CCN(CCCNS(=O)(=O)c3ccc4c(c3)oc(=O)n4C)CC2)cc1
→ . | . | ? | . | -1.6%
CCOc1ccc(C(N)=O)cc1OC
→ i | 2.8e-08 | -3% | i | -3.6%
Nc1nc(CN2CCN(c3ccccn3)CC2)nc(Nc2ccc(F)cc2)n1
→ i | 2.1e-08 | 8% | i | 3.5%
CCOCCCNC(=O)C(NC(=O)c1cnccn1)c1ccc(OC)cc1 (stereo not drawn)
→ i | 2.6e-08 | 6% | i | 1.8%
N#CCSc1nc2scc(-c3cccs3)c2c(=O)n1CCc1ccccc1
→ i | 1.3e-08 | 12% | i | 0.5%
Cc1ccc(CC2SC(=O)NC2=O)cc1Cl (stereo not drawn)
→ i | 1.4e-09 | 4% | i | 3.0%
CCOc1ccc(-c2nnc3sc(COc4ccc(Cl)cc4)nn23)cc1
→ i | 2.6e-08 | ? | i | 1.0%
O=C(CCCCn1c(=O)c2ccccc2n(CC(=O)NC2CCCC2)c1=O)NCc1ccco1
→ i | 3.5e-09 | 4% | i | 0.6%
CCOC(=O)C1CCCN(C(=O)c2cc3c(-c4cccc(OC)c4)nn(C)c3s2)C1 (stereo not drawn)
→ i | 6.5e-09 | . | i | -1.1%
CN1CC(=O)N(CC(=O)Nc2ccc(N(C)C)cc2)c2ccccc2C1=O
→ i | 8.7e-09 | -1% | i | -0.2%
COc1ccc(S(=O)(=O)N(CC(=O)N2CCN(c3ccccc3OC)CC2)c2ccccc2)cc1
→ . | . | 11% | . | 0.6%
Brc1cccc(-c2nc(-c3ccncc3)no2)c1
→ . | . | 13%[11.4 µM] | . | -1.3%
CC(C)CCn1nc(C(=O)OC(C)C(=O)NC(N)=O)c2ccccc2c1=O (stereo not drawn)
→ i | 2.8e-09 | -2% | i | 0.2%
Cc1ccc(-c2csc3n[nH]c(=S)n23)cc1
→ i | 3.2e-09 | 1% | i | -1.8%
CNc1oc(-c2cccs2)nc1C#N
→ i | 1e-09 | . | i | .
CCN(CC)S(=O)(=O)c1ccc(F)cc1
→ i | 1.6e-08 | -6% | i | 0.1%
CCS(=O)(=O)NCCc1csc(-c2cccnc2)n1
→ . | . | 0% | . | -1.3%
CCOC(=O)CSc1nc2ccccc2c(=O)n1CC1CCCO1 (stereo not drawn)
→ i | 8.1e-09 | ? | i | 0.0%
CC(C)CN1C(=O)NC(NC(=O)c2cccnc2)(C(F)(F)F)C1=O (stereo not drawn)
→ i | 3.1e-09 | . | i | .
CCOC(=O)C1CCN(Cc2ccc(O)c(OC)c2)CC1
→ . | . | 0%[11.4 µM] | . | -0.4%
O=C(C1CCCN(S(=O)(=O)c2cccc3nsnc23)C1)N1CCN(c2ccccn2)CC1 (stereo not drawn)
→ i | 3.3e-08 | 9% | i | 0.1%
COCc1cc(C)nc2sc(C(=O)OC)c(N)c12
→ i | 9.8e-09 | 3% | i | 12%
CCOC(=O)N1C(=O)c2cc(OC)ccc2S1(=O)=O
→ i | 1.7e-09 | -3% | i | -2.8%
Nc1ncnc2nc(N3CCN(C(=O)c4ccccc4)CC3)[nH]c12
→ i | 1.7e-09 | -5% | i | -0.8%
CCc1ccc(C2CC(c3ccccc3)Nc3nc(N)nn32)cc1 (stereo not drawn)
→ . | . | -4% | . | 19%
O=c1[nH]c2ccccc2n1CCCSCCCn1c(=O)[nH]c2ccccc21
→ i | 3.5e-09 | . | i | 2.2%

# Overlap with the part before: 3 entries, followed by the next part.
# Values in the order – Resorufin fluor | A647 fluor | TSHR ag | A488 autofl | AID923
Nc1ncnc2nc(N3CCN(C(=O)c4ccccc4)CC3)[nH]c12
→ i | 1.7e-09 | -5% | i | -0.8%
CCc1ccc(C2CC(c3ccccc3)Nc3nc(N)nn32)cc1 (stereo not drawn)
→ . | . | -4% | . | 19%
O=c1[nH]c2ccccc2n1CCCSCCCn1c(=O)[nH]c2ccccc21
→ i | 3.5e-09 | . | i | 2.2%
COCCn1nnnc1C1(N(Cc2cc3cc(C)ccc3[nH]c2=O)CC2CCCO2)CCN(C)CC1 (stereo not drawn)
→ i | 2.5e-08 | 5% | i | 1.0%
Cc1cc(C)n(CCO)c(=O)n1
→ i | 3.4e-08 | -2% | i | 3.1%
CCCC/C=C/C(NC(=O)C(C)(C)C)c1ccccc1 (stereo not drawn)
→ . | . | ? | . | 3.3%
Cc1ccc(NCc2nnc(SCC(=O)c3ccc4c(c3)OCCO4)o2)c(C)c1
→ i | 3e-08 | 3% | i | 0.5%
COc1cc2c(cc1OC)CN(C(=O)C(C)(C)C)CC2
→ . | . | 11% | . | 1.6%
Cc1ccccc1-c1ccc2ncnc(NC3CC3)c2c1
→ i | 1e-09 | ? | i | 1.3%
CC[C@@H](C)[C@H](NC(=O)OC(C)(C)C)c1nnc(S(=O)(=O)Cc2cc(C)ccc2C)o1
→ i | 2.2e-08 | 17% | i | 0.5%
CCCNC(=O)c1ccc(SC)cc1OC
→ . | . | 15%[11.4 µM] | . | 0.7%
COc1ccc[nH]c1=O
→ i | 1e-09 | . | i | .
CC(C)c1ccc(S(=O)(=O)N2CCN(CCC(=O)Nc3ccc(N(C)C)cc3)CC2)cc1
→ i | 1e-09 | -18% | i | 0.4%
CCOC(=O)C(Cc1c[nH]c2ccccc12)NC(=O)CNC(C)=O (stereo not drawn)
→ i | 4.9e-09 | 4% | i | 2.4%
Cc1ccc(CN2C3=NCCCN3c3ccccc32)cc1
→ i | 3.8e-09 | ? | i | -1.2%
O=C(O)c1ccc(COc2c(F)c(F)c(F)c(F)c2F)o1
→ i | 3.6e-08 | . | i | .
Cc1ccc(-c2nnc3c4ccccc4c(C)nn23)cc1S(=O)(=O)N1CCN(C)CC1
→ i | 1.8e-09 | ? | i | -2.5%
COc1cccc(NS(=O)(=O)c2cc(C)ccc2OC)c1
→ i | 2.8e-08 | -7% | i | 0.3%
CSc1ccccc1NC(=O)Nc1ccccc1
→ i | 4.4e-09 | 2% | i | -0.5%
COc1ccc(-c2nnc(SC(C)C(=O)Nc3nccs3)n2-c2ccccc2)cc1OC (stereo not drawn)
→ i | 4.8e-09 | 23% | i | -2.8%
Cc1c(C(=O)N(C)Cc2ccccc2)oc2ccc(S(=O)(=O)N3CCCC3)cc12
→ i | 3.1e-08 | ? | i | -1.1%
COc1cccc(NC(=O)C(C)Oc2ccccc2)c1 (stereo not drawn)
→ . | . | ? | . | -1.3%
CC(=O)N1c2ccccc2NC2=C(C(=O)CCC2)C1c1cccnc1 (stereo not drawn)
→ i | 4.6e-08 | 24% | i | -0.5%
C/C=C/c1ccc(OC)c(OC(C)=O)c1
→ i | 1e-09 | 0% | i | 1.4%
CCN(CCCNC(=O)CCNC(=O)Cn1cnc2ccccc2c1=O)c1cccc(C)c1
→ i | 7.2e-09 | 5%[11.4 µM] | i | -0.4%
COc1ccccc1Nc1ncc(-c2cccs2)s1
→ i | 5.1e-08 | . | i | .
Cc1nn(-c2ccc(F)cc2)c2sc(C(=O)OCC(=O)N3CCC(C)CC3)cc12
→ i | 3.1e-08 | 14% | i | 0.7%
CC(OC(=O)CNC(=O)C12CC3CC(CC(C3)C1)C2)C(=O)Nc1ccc(N2CCOCC2)cc1 (stereo not drawn)
→ i | 5.5e-08 | -6% | i | -1.4%
CC(=O)Nc1ccc(Cl)cc1C(=O)O
→ i | 2.8e-08 | 7%[11.4 µM] | i | 0.4%
O=C(O)[C@@H]1CSC2(CCSC2)N1 (stereo partly drawn)
→ i | 4.6e-08 | 9% | i | 0.7%
CC(C)c1nc(N2CCOCC2)c(C#N)c2c1COC(C)(C)C2
→ i | 6.9e-08 | . | i | .
COc1ccccc1NC(=O)c1c(NC(=O)c2ccco2)sc2c1CCC2
→ . | . | -1% | . | 4.8%
O=C(Cn1[nH]c(=O)c2ccccc2c1=O)NC1CCN(Cc2ccccc2)CC1
→ i | 8e-09 | 1% | i | 2.0%

# (more compounds)
# Values in the order – Resorufin fluor | A647 fluor | TSHR ag | A488 autofl | AID923
CC(C)CN1CCCC2(CCN(C(=O)c3cc(C(F)(F)F)cc(C(F)(F)F)c3)CC2)C1
→ i | 6.4e-09 | ? | i | 2.2%
CC1CN(c2nnnn2-c2ccccc2)CC(C)O1 (stereo not drawn)
→ . | . | ? | . | 2.3%
CCOCCCNC(=O)C(NC(=O)c1ccc2c(c1)OCO2)c1ccc(OC)cc1 (stereo not drawn)
→ i | 2.7e-08 | 13% | i | 0.7%
CCCC(=O)Nc1nc2ccc(OCC)cc2s1
→ . | . | -9% | . | 2.9%
COC(=O)c1[nH]c2ccccc2c1NC(=O)Oc1ccccc1
→ i | 5.7e-09 | -17% | i | 3.9%
COC(=O)[C@@H]1CC[C@H](C)[C@@H](c2ccc(C)cc2)N1C(=O)c1ccc(/C=N\OC[C@@H](C)[C@H](OCc2ccccc2)C(C)C)cc1
→ . | . | -2%[11.4 µM] | . | -4.8%[11.5 µM]
Nc1nc(Cn2nnc(-c3ccccc3Cl)n2)nc(N2CCOCC2)n1
→ i | 2.7e-08 | 1%[11.4 µM] | i | 0.8%
CCOC(=O)c1ccccc1NC1OC(=O)c2ccccc21 (stereo not drawn)
→ i | 5.6e-08 | 7% | i | -0.7%
CC(C)CC(=O)Nc1ccc(OCC(=O)O)cc1
→ . | . | 2% | . | 3.9%
O=c1c(CCc2ccccc2)nc2cnc(N3CCOCC3)nc2n1C[C@H]1CCCO1
→ i | 7.4e-09 | 8% | i | 11%
CCc1ccc(Nc2nc(N)nc(CSc3nnnn3-c3ccccc3)n2)cc1
→ i | 1.3e-08 | 46% | i | -1.7%
CCOC(=O)c1[nH]c2ccc(OC)cc2c1NC(=O)OC
→ i | 1e-09 | 11% | i | 0.1%
CCOC(=O)C1CCCN(C(=O)c2ccc(CNc3c(N4CCC(C)CC4)c(=O)c3=O)cc2)C1 (stereo not drawn)
→ . | . | -1% | . | -0.2%
COC(=O)c1sc(NC(=O)COc2ccccc2OC)nc1C
→ . | . | ? | . | -0.8%
CCn1c(-c2ccc(F)cc2)n[nH]c1=S
→ i | 2.1e-09 | ? | i | 0.4%
Cc1ccc2nsnc2c1S(=O)(=O)Nc1cccc2nsnc12
→ i | 3.2e-08 | 0% | i | 0.2%
Cc1ccnc(NS(=O)(=O)c2ccccc2)n1
→ i | 1e-09 | 0% | i | -0.4%
CCn1cc(Br)c(C(=O)N2CCN(c3ccccc3)CC2)n1
→ i | 2.3e-09 | 9% | i | 0.6%
O=c1nccc(NCc2ccco2)[nH]1
→ i | 6.4e-09 | 4% | i | 0.0%
CCCCCCNC(=O)Nc1ccccc1
→ . | . | 4%[11.4 µM] | . | -1.7%
O=c1c2ccccc2nnn1CSc1nc2cc(Cl)ccc2c(=O)n1Cc1ccco1
→ i | 2.5e-08 | ? | i | 0.2%
O=C(Nc1ccccc1F)c1ccc(S(=O)(=O)NCC2CCCO2)cc1 (stereo not drawn)
→ i | 5.4e-08 | -1% | i | -1.7%
CCN1C(=O)[C@H]2[C@H]3[C@H](O)[C@H](O)C/C(=N/OCC[C@H]4C=C[C@H](OC(C)=O)[C@@H](COC(C)=O)O4)[C@@H]3CC[C@@H]2C1=O
→ . | . | -1%[11.4 µM] | . | 2.5%[11.5 µM]
CCC(=O)N1CCN(c2cc(C)ccc2C)CC1
→ i | 1.3e-08 | ? | i | -1.0%
